# Bioassay records from PubChem BioAssay.
# Ecoli rRNA inh: inhibits bacterial ribosomal RNA function over humanized ribosomes; 1.6% of 350,000 active; GFP signal change (wild-type ribosome), % (no concentration beside the values); E. coli WT GFP vs humanized-ribosome RFP mutants, fluorescence, 24 h; stronger effect = lower value; DMSO median 0, no signal -100;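 active means significant combined selectivity score with lowered wild-type GFP, culture density cut under 30%, mutant RFP and density less affected; inactive means any of these conditions unmet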; further: one replicate is shown; some compounds called inactive have numbers as strong as hits
# Beta cell apopt: blocks beta cell apoptosis | INS-1E cytokine-induced death, ATP luminescence, 48 h; percent of positive-control rescue, neutral wells zero | protection from apoptosis, % (concentration not given with the values) | 0.8% of 300,000 active | AID 435005;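 active means all replicates at 75% or more, or half of them and the mean; inconclusive means half reach 75% but not the mean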;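 further: 0% = cytokine-treated negative control wells and 100% = positive control rescue; higher means more ATP so stronger rescue from cytokine killing; wells of about 40 µL received 100 nL stock; the first replicate is given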
# E coli growth: inhibitors of Escherichia coli growth; AID 1053175; OD600 absorbance (no concentration beside the values); 0.21% of 330,000 active; OD600, 23 h; stronger effect = lower value;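 active means OD600 absorbance below the run mean of sample wells minus 3.6 SD, in any replicate, cut at about 0.56 in these data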;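 further: stock transfer was 300 nL into about 60 µL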
# T cruzi repl: T. cruzi replication inhibition; 1.4% of 300,000 active; inhibition, % (concentration not given with the values); T. cruzi beta-gal in NIH3T3, luminescence, 90 h;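 active means mean inhibition across valid replicates above about 55%, limit read from the data; inconclusive means mean below that limit but half or more replicates reach it; inactive means mean below it, under half of replicates reach it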;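 further: signal also drops with host cell toxicity which is not excluded here; 0% = plate median of DMSO wells and 100% = zero luminescence signal; higher percent means less beta-gal luminescence so fewer parasites; stock transfer was 50 nL into about 50 µL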
# A1 inh: inhibitors of the anti-apoptotic protein A1, read as caspase activation. MEF A1-2A-BIM cells, Caspase-Glo 3/7 luminescence, 3 h; percent of clofoctol response, vehicle zero. caspase activation, % (concentration not given with the values). 0.066% of 330,000 active. AID 2462;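 active means over half of replicate activation scores above 10%, or exactly half above 10 with the replicate mean above 10; inconclusive means replicate mean below 10 yet half the replicates above 10; inactive means over half of replicates below 10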;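 further: wells of about 30 µL received 50 nL stock; many hits fall short of the cut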
# UCH37 DUB inh: inhibitors of human deubiquitinating enzyme UCH37 | inhibition, % (no concentration beside the values) | 0.33% of 330,000 active | purified proteasome/UCH37, Ub-AMC cleavage fluorescence | AID 588478;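 active means mean of two replicates above 20%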;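 further: 0% = compound-free wells with enzyme and 100% = wells lacking proteasome; stock transfer was 100 nL into about 20 µL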
# Target sequence (Q9Y5K5 whole entry, looked up): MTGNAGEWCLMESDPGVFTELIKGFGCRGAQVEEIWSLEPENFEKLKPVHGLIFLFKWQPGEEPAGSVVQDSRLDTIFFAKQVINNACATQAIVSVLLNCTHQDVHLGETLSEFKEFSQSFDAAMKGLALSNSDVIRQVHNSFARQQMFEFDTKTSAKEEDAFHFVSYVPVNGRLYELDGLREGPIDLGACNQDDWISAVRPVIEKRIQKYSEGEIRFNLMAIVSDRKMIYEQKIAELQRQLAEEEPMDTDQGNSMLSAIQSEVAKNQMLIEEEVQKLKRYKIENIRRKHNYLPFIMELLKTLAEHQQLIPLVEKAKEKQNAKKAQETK
#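 Material: human UCH37 enzyme supplied as purified proteasome complex. Measure: % inhibition of Ub-AMC cleavage fluorescence. Medium: pH 7.4 Tris-HCl (50 mM) with ovalbumin, ATP-MgCl2, DTT. Times: 30 min preincubation with enzyme, 25 min cleavage at room temperature. Detection: AMC fluorescence intensity at 355/460 nm.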
# AF4-AF9 inh: MLL-AF4/AF9 protein interaction inhibition; inhibition, % at 10 µM; P42568; 0.47% of 350,000 active; AlphaScreen, biotin-AF4 peptide binding to FLAG-AF9;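 active means every replicate reaching a set inhibition limit, whatever the replicate mean, cut at about 25% in these data; inconclusive means mean inhibition reaches that limit but some replicates miss it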;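 further: 0% = plate neutral control median and 100% = total signal loss; the record names both 10 and 1 µM as test concentration; the first replicate is given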
# FGF22 binding: FGF22 (human) thermal shift binding | recombinant FGF22 thermal shift, SYPRO orange fluorescence; percent of sucrose octasulfate shift, DMSO zero | 1.5% of 340,000 active | AID 651658 | Q9HCT0 | calls only at 9.99 µM;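 active means melting point raised past a set limit in the mean and every replicate; inconclusive means no clear call; three in four hits are not shown here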
# Target sequence (Q9HCT0 whole entry, looked up): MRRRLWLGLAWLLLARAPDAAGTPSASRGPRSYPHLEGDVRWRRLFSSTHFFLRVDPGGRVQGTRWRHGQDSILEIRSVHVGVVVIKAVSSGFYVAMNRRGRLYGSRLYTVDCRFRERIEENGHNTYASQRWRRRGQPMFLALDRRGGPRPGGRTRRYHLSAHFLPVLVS
# Ecoli rRNA inh OD600: recorded beside Ecoli rRNA inh, whose call it bears; OD600 change, %; measured here: OD600 growth;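 optical density of the mix in the first replicate; 0 = DMSO median and -100 = no signal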
# Ecoli rRNA inh RFP: also measured in Ecoli rRNA inh; calls as there; RFP signal change, %; measured here: RFP humanized mutant strains;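 first replicate; 0 = DMSO median and -100 = no signal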
# Starred values were filed as active, the others as inactive; i = inactive; u = inconclusive; x = no result given.
SMILES,Ecoli rRNA inh,Ecoli rRNA inh OD600,Ecoli rRNA inh RFP,Beta cell apopt,E coli growth,T cruzi repl,A1 inh,UCH37 DUB inh,AF4-AF9 inh,FGF22 binding
COc1cc(COCC(O)CN2CCN(Cc3ccc4c(c3)OCO4)CC2)cc(OC)c1OC (centres undefined),12,4,-1.3,-4,0.67,4,1.7,4.9,1.7,i
Cc1c2ccccc2cc(Cc2ccccc2)[n+]1C,-12,-6,-3.7,2,0.64,13,-0.6,-33,0.6,i
Cc1ccc(-c2c3c(nc4sc(C(N)=O)c(N)c24)CCC3)cc1,x,x,x,-42,0.69,17,0.0,-1.2,x,x
CCc1ccc(C(=O)C(C)OC(=O)CN2C(=O)NC3(CCCC3)C2=O)cc1 (centres undefined),-2,0,1.4,x,0.69,x,x,1.4,5.0,i
COc1ccccc1NC(=S)NC12CN3CN(CN(C3)C1)C2,8,12,-4.8,-1,0.71,4,0.3,2.8,12,x
CCN(CC)C(=O)CSC1=Nc2ccccc2C2=NC(c3ccccc3)C(=O)N12 (centres undefined),x,x,x,2,0.64,6,0.8,-174,x,x
CCOC(=O)C1CCCN(c2nc3c(C)cccn3c(=O)c2/C=C(\C#N)C(=O)NCc2ccco2)C1 (centres undefined),-2,8,0.2,8,0.68,24,0.2,4.3,9.4,i
CCn1c(Cc2cccc3ccccc23)nnc1SCC(=O)Nc1nccs1,x,x,x,-3,0.72,11,0.4,5.4,x,x
O=C(O)c1ccc(NC(=O)C2(c3ccccc3)CCOCC2)cc1,x,x,x,-6,0.74,-3,1.6,1.6,x,x
CCOC(=O)Nc1ccc(S(=O)(=O)NCCCN2CCOCC2)cc1,x,x,x,-25,0.62,-9,-0.4,3.8,x,x
O=C(Nc1cccc(-n2cnnn2)c1)c1ccncc1,7,11,-1.6,-3,0.71,-6,0.7,1.2,0.7,i
Cc1cccc(C)c1N1CCc2cn[nH]c21,x,x,x,0,0.73,-2,0.2,3.0,x,x
COc1ccc(C2SCC(=O)N2C)cc1 (centres undefined),x,x,x,-3,0.63,-3,0.2,0.0,x,x
COC(=O)C[C@H]1c2cc(F)cc(F)c2S(=O)(=O)N1C1CCN(Cc2ccccc2)CC1,9,4,-0.1,2,x,-20,-1.2,0.9,-1.4,i
CC1=C(C(=O)OCC(C)C)C(c2ccsc2)NC(=O)N1 (centres undefined),x,x,x,-1,0.64,12,0.6,2.2,x,x
CC(=O)c1ccc(NC2OC(C)C(O)C(O)C2O)cc1 (centres undefined),x,x,x,3,0.72,-4,-0.1,4.6,x,x
CC(CSc1n[nH]c(=S)s1)c1ccccc1 (centres undefined),-13,-30,-7.4,x,0.66,x,x,4.5,-4.7,i
CCOCCCNS(=O)(=O)c1ccc(NC(=O)Cc2c(F)cccc2Cl)cc1,0,1,1.8,-2,0.69,-11,0.0,0.0,-0.3,i
O=[N+]([O-])c1cccc(S(=O)(=O)/N=C(/Nc2ccccc2)c2ccccc2)c1,3,13,-0.2,-3,0.66,x,u,2.6,-14,i
CNC(=O)COC(=O)CNC(=O)c1cc(Cl)cc([N+](=O)[O-])c1,22,18,1.9,-5,0.7,-2,0.3,4.1,-2.2,i
O=C(CNC(=O)c1ccco1)NCCCc1ccccc1,x,x,x,-1,0.71,-10,0.1,-0.1,x,x
CCOc1ccc(NS(=O)(=O)c2ccc3[nH]cc(C(=O)NC(C)CC)c(=O)c3c2)cc1 (centres undefined),x,x,x,-6,0.69,3,0.0,6.4,x,x
COc1ccc2nc(C(F)(F)C(F)(F)F)c(C#N)c(N)c2c1,x,x,x,6,0.71,-21,2.2,0.6,x,x
CC(C)c1ccc(NC2CCCN(C(=O)CN3C(=O)CSC3=O)C2)cc1 (centres undefined),1,-2,-4.2,0,0.67,-3,0.1,-0.9,7.2,i
CCOC(=O)c1sc(=S)n(-c2ccc3c(c2)OCO3)c1N,-34,-37,-12,5,0.71,10,-0.6,7.8,7.4,i

# Continued, starting with the last seven of the part before.
SMILES,Ecoli rRNA inh,Ecoli rRNA inh OD600,Ecoli rRNA inh RFP,Beta cell apopt,E coli growth,T cruzi repl,A1 inh,UCH37 DUB inh,AF4-AF9 inh,FGF22 binding
O=[N+]([O-])c1cccc(S(=O)(=O)/N=C(/Nc2ccccc2)c2ccccc2)c1,3,13,-0.2,-3,0.66,x,u,2.6,-14,i
CNC(=O)COC(=O)CNC(=O)c1cc(Cl)cc([N+](=O)[O-])c1,22,18,1.9,-5,0.7,-2,0.3,4.1,-2.2,i
O=C(CNC(=O)c1ccco1)NCCCc1ccccc1,x,x,x,-1,0.71,-10,0.1,-0.1,x,x
CCOc1ccc(NS(=O)(=O)c2ccc3[nH]cc(C(=O)NC(C)CC)c(=O)c3c2)cc1 (centres undefined),x,x,x,-6,0.69,3,0.0,6.4,x,x
COc1ccc2nc(C(F)(F)C(F)(F)F)c(C#N)c(N)c2c1,x,x,x,6,0.71,-21,2.2,0.6,x,x
CC(C)c1ccc(NC2CCCN(C(=O)CN3C(=O)CSC3=O)C2)cc1 (centres undefined),1,-2,-4.2,0,0.67,-3,0.1,-0.9,7.2,i
CCOC(=O)c1sc(=S)n(-c2ccc3c(c2)OCO3)c1N,-34,-37,-12,5,0.71,10,-0.6,7.8,7.4,i
Cc1cc(C)cc(NS(=O)(=O)c2ccc(NC(=O)c3ccccc3C(=O)O)cc2)c1,-1,-1,-0.1,-7,0.63,-6,0.7,0.3,-0.5,i
CCn1c(C)nc2cc(C(=O)NNC(=S)Nc3ccccc3OC)ccc21,-20*,2.2*,5.7*,-11,0.71,-7,0.8,4.0,-7.4,i
O=C(CCNC(=O)C1CCN(S(=O)(=O)c2ccc(F)cc2)CC1)NCc1ccc(F)cc1,6,11,-0.9,-7,0.69,3,0.1,-1.9,0.7,i
C=CCN1CC(=O)N2Cc3[nH]c4ccccc4c3C[C@H]2C1=O,-8,-5,-4.8,0,0.66,-2,1.0,1.5,-2.0,i
CCOc1ccc2nc(SCC(=O)c3ccc(Cl)s3)sc2c1,x,x,x,1,0.79,7,1.6,3.5,x,x
Cc1cc(CNC(=S)Nc2ccc(S(=O)(=O)Nc3ncccn3)cc2)nn1C,4,9,-0.3,-3,0.72,-5,0.0,1.3,-9.8,i
COC(=O)c1cc(NC(=O)Cn2c(=O)oc3ccccc32)cc(C(=O)OC)c1,3,2,0.7,0,0.71,6,-0.4,0.0,-1.0,x
C/C(=N\NC(=O)c1ccc(Cn2cc(Br)cn2)o1)c1ccc(NC(=O)c2ccoc2C)cc1,-22,5,11,x,x,-8,x,x,0.2,i
COc1ccc(C(=O)N2N=C(c3cccc(NS(C)(=O)=O)c3)CC2c2cccs2)cc1 (centres undefined),-8,-19,1.5,0,0.68,7,0.6,4.5,3.1,i
Cn1nc(-c2ccccc2)c(C(O)c2ccccc2C(F)(F)F)c1Cl (centres undefined),x,x,x,-6,0.7,1,-0.7,1.4,x,x
O=C1CC(N(Cc2cccs2)C(=O)Nc2ccccc2)C(=O)N1c1ccc(Cl)cc1 (centres undefined),-33,-63,-5.9,-3,0.68,-8,0.8,6.2,0.7,i
COc1ccccc1CN1CC(C(=O)NCCc2ncccc2C)CCC1=O (centres undefined),14,13,3.9,x,0.67,-1,x,-0.3,-5.7,i
CCN(CC)C(=O)Cn1nc(-c2ccncc2)nc1SCC(=O)Nc1ccc(OC)cc1,7,7,-1.1,2,0.59,22,1.2,0.2,1.1,i
Cc1ccc(Sc2ccc(NC(=O)CCN3C(=O)NC4(CCCC4)C3=O)cc2)c(C)c1,-35,-48,0.1,3,0.67,x,0.3,3.6,5.1,i
Cc1c(C(=O)O)sc2nc(/C=C/c3ccccc3OC(F)F)[nH]c(=O)c12,-4,1,-2.6,-4,0.65,-3,-0.3,-47,-0.3,i
COCC(=O)N1CCC(Oc2ccc(C(=O)N3C[C@@H](C)O[C@@H](C)C3)cc2)CC1,0,3,-1.3,0,0.72,-5,0.2,-0.5,-2.9,i
Cc1nn(CC(O)COc2ccc3c(c2)CCC3)c(C)c1Br (centres undefined),x,x,x,5,0.75,-1,0.3,2.2,x,x
Cc1cccc(NC(=O)c2sc3nc4c(c(-c5ccco5)c3c2N)CCC4)c1,x,x,x,-2,0.74,42,-2.7,-2.0,x,x
COc1ccc(CC(=O)Oc2ccc(C(C)C)cc2)cc1S(=O)(=O)N1CCOCC1,-1,6,0.3,-18,0.65,-3,-0.5,-1.7,-1.8,i
COc1ccc([N+](=O)[O-])cc1NC(=O)CS(=O)(=O)c1ccc(C)cc1,x,x,x,-3,0.73,-17,0.7,5.0,0.1,i
O=c1c(-c2ccnn2-c2ccccc2F)cnc2n1CCS2,x,x,x,-1,0.72,-5,1.4,-1.8,x,x
C[C@@H]1CN(C(=O)c2ccc(OC3CCN(S(=O)(=O)N(C)C)CC3)cc2)C[C@H](C)O1,7,7,-0.9,1,0.69,-11,0.3,1.7,-0.6,i
CC(C)CC(=O)NC1(C(F)(F)F)NC(=O)N(c2ccccc2)C1=O (centres undefined),18,11,2.6,-6,0.72,-8,0.3,3.4,-0.9,x
O=C(CSc1nnc(Cn2cnc3ccccc32)o1)c1ccccc1,x,x,x,3,0.68,-6,-0.4,-0.3,x,x
Cn1cc(S(=O)(=O)N2CCOCC2)cc1C(=O)NCc1ccc(Cl)cc1,8,-1,-1.8,-8,0.7,-5,0.2,5.2,3.4,i

# Ordered by value in AF4-AF9 inh (highest first): some entries from above.
mol,AF4-AF9 inh
CC(C)c1ccc(NC2CCCN(C(=O)CN3C(=O)CSC3=O)C2)cc1 (centres undefined),7.2
COC(=O)C[C@H]1c2cc(F)cc(F)c2S(=O)(=O)N1C1CCN(Cc2ccccc2)CC1,-1.4
Cc1cc(CNC(=S)Nc2ccc(S(=O)(=O)Nc3ncccn3)cc2)nn1C,-9.8

# The list is partial; the hit share may differ from the screen's.
